HIV Env fusion – inhibitors of HIV-1 Env-driven cell-cell fusion, primary screen, HeLa-JRFL effector, CEM21 target cells, luciferase | inhibition, % at 12.3 µM | actives 1.1% (n = 360,000);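 active means mean replicate inhibition score of at least 50 and every replicate individually at or above 50; inconclusive means only one of the two criteria met; inactive means mean below 50 and not all replicates reaching 50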;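 further: 0% = plate neutral controls and 100% = maraviroc near 300 nM; one replicate is shown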
Rce1 inh – yeast Rce1p protease inhibitors, primary screen, biochemical, fluorescence, cell-free homogeneous | CAAX prenyl protease 2 (Saccharomyces cerevisiae (strain ATCC 204508 / S288c)), Q03530 | yeast membranes, quenched prenylated peptide cleavage fluorescence | calls only | actives 0.27% (n = 290,000);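 active means fall in fluorescence gain of 50% or more versus controls, with final raw signal at or below 3038400; inconclusive means same 50% fall but final raw signal above 3038400; inactive means fall in fluorescence gain under 50%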;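 further: plate controls were neutral control wells for no effect and wells lacking membranes for full effect; tested at 10 µM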
Target sequence (Q03530 whole entry, looked up): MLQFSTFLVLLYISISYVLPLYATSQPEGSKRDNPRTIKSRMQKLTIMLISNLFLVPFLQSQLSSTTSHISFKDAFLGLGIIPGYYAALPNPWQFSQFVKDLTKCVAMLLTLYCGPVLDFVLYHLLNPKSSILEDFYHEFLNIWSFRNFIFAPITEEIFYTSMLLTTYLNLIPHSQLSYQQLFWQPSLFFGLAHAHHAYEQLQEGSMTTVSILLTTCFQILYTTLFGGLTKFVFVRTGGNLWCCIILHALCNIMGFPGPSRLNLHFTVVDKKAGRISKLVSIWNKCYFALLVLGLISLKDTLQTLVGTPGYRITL
eIF4H inh – human eIF4H binding inhibitors, primary screen, translation initiation inhibitor project, biochemical, uHTS, fluorescence polarization | Eukaryotic translation initiation factor 4H (Homo sapiens), Q15056 | eIF4H fluorescence polarization binding assay | inhibition, % at 35 µM | actives 0.94% (n = 290,000);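 active means 50% or more with normal probe brightness, or confirmed in later tests; inconclusive means above 50% with abnormal brightness, or retests that disagree; inactive means below 50% or failed in later tests; about a fifth of its hits are not listed in these tables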;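 further: calls also rest on retests at 20 µM and on dose response follow-up; 0% = protein and probe with vehicle and 100% = probe without protein; strong numbers were not always called active; many hits fall short of the cut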
Yeast UUG start – modulators of yeast start codon fidelity, primary screen, whole organism, S. cerevisiae, single point, plate reader | S. cerevisiae UUG-firefly luciferase reporter, luminescence/redox ratio | activity score, % at 18.7 µM | AID 602363, 2012 | actives 0.13% (n = 350,000);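 active means replicate mean at a twofold rise or more, about +100% in these data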;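 further: firefly luciferase made from a UUG start codon reports start codon fidelity; reporter light over untreated wells divided by growth signal over untreated wells; some hits fall short of that in this replicate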
PABP polyA inh – PABP poly(A) RNA binding inhibitors, primary screen, biochemical, fluorescence polarization, uHTS | actives 1% (n = 290,000) | Polyadenylate-binding protein 1 (Homo sapiens), P11940 | inhibition, % at 35 µM;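 active means 50% or more with normal probe brightness, or confirmed in later tests; inconclusive means above 50% with abnormal brightness, or retests that disagree; inactive means below 50% or failed in later tests; about a fifth of its hits are not listed in these tables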;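 further: calls also rest on retests at 20 µM and on dose response follow-up; controls were probe without protein and protein plus probe with vehicle; some compounds called inactive have numbers as strong as hits; many hits fall short of the cut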
MT1-MMP act inh – blockers of MT1-MMP proenzyme processing, primary screen, HT1080 RFP-PRO-GFP cells, GFP/RFP fluorescence | Matrix metalloproteinase-14 (Homo sapiens), P50281 | GFP/RFP ratio fluorescence, overnight; percent of plate control window, DMSO zero | GFP/RFP ratio change, % at 20 µM | actives 0.061% (n = 360,000);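 active means GFP/RFP ratio change of at least 30% with cell ATP level not reduced by more than half and red fluorescence within 50% of control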; further: strong numbers were not always called active
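Compound: 20 µM single dose, 1% DMSO / System: HT1080 RFP-PRO-GFP cells / Controls: DMSO and RFP-L50D-GFP cell wells / Read-out basis: GFP/RFP fluorescence ratio / Schedule: overnight compound exposure at 37 °C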
CSC inhib – cancer stem cell viability inhibitors, primary screen, luminescence; cancer stem cell-like cells viability; inhibition, % at 7.5 µM; actives 1.1% (n = 300,000); AID 2717, 2010;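 active means mean at 75% or more and at least half the replicates too; inconclusive means mean and replicates disagree; tested in HMLE shEcad cells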;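 further: 0% = median of negative and 100% = median of positive control wells; the first replicate is given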
eIF4H inh retest – also measured in eIF4H inh; calls as there; inhibition, %; compound at 20 µM; confirmation average;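 mean of two retest wells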
PABP polyA inh retest – further read-out of PABP polyA inh, marked with its call; inhibition, %; compound at 20 µM; confirmation repeats;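 mean of two retest wells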
MT1-MMP act inh RFP – further read-out of MT1-MMP act inh, marked with its call; RFP signal change, %; measured here: RFP expression control read;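 0 = vehicle wells; hits needed this value within 50% of zero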
Starred values were filed as active, the others as inactive; i = inactive; ? = inconclusive; nt = not tested or not shown.

SMILES	HIV Env fusion	Rce1 inh	eIF4H inh	Yeast UUG start	PABP polyA inh	MT1-MMP act inh	MT1-MMP act inh RFP	CSC inhib	others
Cc1cc(N2CCCC2)ccc1NC(=O)COc1ccccc1	-12.1	nt	nt	-10.4	nt	-45.8	-8.2	nt
COCC(C)n1c(C)cc(C(=O)COc2ccc(S(=O)(=O)N3CCOCC3)cc2Cl)c1C (stereo unspecified)	-0.2	nt	-3.5	-6.9	10.8	-1.4	-1.0	-17.4
Cc1ccccc1NC(=O)Cn1nc(C(F)(F)F)cc1C1CC1	-64.7	i	-3.1	-28.6	10.6	-0.6	2.2	-4.1
Cc1nn(Cc2ccccc2Cl)c(C)c1NC(=O)CCCn1nc(C)c([N+](=O)[O-])c1C	15.9	i	4.2	1.5	-2.8	6.3	-5.4	-9.5
O=C(COC(=O)c1ccc(Cl)nc1)Nc1nnc(-c2ccccc2)o1	-232.5	i	nt	-23.6	nt	0.7	4.7	0.4
COc1ccc(CN2CCNC(=O)C2CC(=O)NCC2CCOCC2)c(F)c1 (stereo unspecified)	1.0	i	8.8	-9.9	13.9	-0.5	1.0	-7.4
CC1(C(=O)Nc2nc3ccccc3s2)CC1(Br)Br (stereo unspecified)	-3.7	i	-2.2	-16.9	0.5	-3.6	-9.9	-4.1
Cc1cc2c(=O)oc(-c3ccc(Br)cc3)nc2s1	-9.2	i	-0.8	nt	-5.7	4.3	-3.1	-8.2
Cc1c(O)cc2c(c1O)C(=O)CC(c1ccc(O)cc1)O2 (stereo unspecified)	nt	i	95.2*	-4.3	45.0*	2.5	2.3	-12.8	eIF4H inh retest=79.8*;PABP polyA inh retest=52.0*
CCCn1c(SCC(=O)NCc2ccc(C)cc2)n[nH]c1=O	-0.3	i	-3.9	nt	-6.0	-1.3	1.8	nt
CCc1nc2c(OCCOc3ccccc3)cccn2c1N(C)C(=O)c1ccccc1F	-11.1	nt	nt	-3.3	nt	-4.2	-1.2	nt
CC(C)(C)OC(=O)CC[C@@H](C(=O)N1CCN(C(=O)OC(C)(C)C)CC1)n1cc(C(Cc2ccc(O)cc2)NC(=O)OC(C)(C)C)nn1 (stereo partly specified)	61.7*	i	-8.4	3.4	-5.9	1.1	-3.4	-5.1
COc1cc(-c2cc(C(=O)Nc3ccc(S(N)(=O)=O)cc3)c3ccccc3n2)cc(OC)c1OC	-2.1	i	-5.7	-15.2	-5.3	-0.3	-3.0	4.2
C=CCNC(=S)N1CCN(c2ncc3c(=O)c(C(=O)O)cn(CC)c3n2)CC1	13.7	i	-4.6	-3.9	-0.1	-3.4	1.7	-5.0
COc1ccc(-n2ccnc(SCC(=O)NC3CCCC3)c2=O)cc1OC	2.9	i	nt	nt	nt	1.0	0.8	3.7
C#CCOCCOCCOCCNc1nc(N2CCN(C(=O)C(Cc3cc4ccccc4[nH]3)n3cc(C(N)Cc4ccc(O)cc4)nn3)CC2)nc(N2CCN(C(=O)C(Cc3cc4ccccc4[nH]3)n3cc(C(N)Cc4ccc(O)cc4)nn3)CC2)n1 (stereo unspecified)	nt	i	-20.3	nt	-48.0	nt	nt	nt
CCOc1ccc(NC(=O)COn2nnc3ccc(S(=O)(=O)N4CCOCC4)cc32)cc1	11.0	nt	-11.3	nt	?	0.5	-10.9	-6.9
FC(F)(F)c1cccc(Cc2noc(CN3CCCC(OCc4ccccn4)C3)n2)c1 (stereo unspecified)	34.3	i	-7.4	nt	4.2	1.3	0.2	-8.2
CCCn1c(=O)[nH]c2ccccc21	nt	i	-3.3	-9.8	12.3	3.7	8.0	3.3
CN(c1ccccc1)S(=O)(=O)c1cccc(NC(=O)CSc2nccc(=O)[nH]2)c1	-8.3	nt	nt	-11.7	nt	3.2	3.4	-8.6
CN(CCc1ccccc1)C(=O)c1cccc(NC(=O)Cc2cccc(NC(=O)C3CCN(C(=O)C4CCCC4)CC3)c2)c1	-6.6	nt	nt	12.5	nt	-0.5	-14.2	nt
Cn1c(SCc2nc3ccccc3c(=O)[nH]2)nnc1-c1ccco1	nt	i	3.2	-10.2	6.9	1.4	0.2	0.6
CCCOc1ccc(N2C(=O)CC(N(O)c3ccccc3)C2=O)cc1 (stereo unspecified)	-34.1	i	7.5	-18.7	-9.5	5.8	5.0	-11.0
CCN(CC)c1ccc(/C=C2/C(=O)N(c3ccc([N+](=O)[O-])cc3)N=C2N2CCOCC2)cc1	nt	i	4.6	nt	-4.0	nt	nt	-4.2
CC1CCCCN1C(=O)CSc1nnc2ccccn12 (stereo unspecified)	-10.0	nt	nt	-8.7	nt	2.1	8.0	-12.4
(more compounds)
SMILES	HIV Env fusion	Rce1 inh	eIF4H inh	Yeast UUG start	PABP polyA inh	MT1-MMP act inh	MT1-MMP act inh RFP	CSC inhib	others
O=c1sc2ccccc2c(=O)n1Cc1ccccc1F	7.4	i	-9.0	nt	3.9	5.5	-2.3	-11.8
CCC1(c2ccc(F)cc2)NC(=O)N(CC(=O)NCc2ccc(F)cc2)C1=O (stereo unspecified)	3.3	i	3.3	-10.5	12.0	1.2	-2.4	-9.0
CCC(=O)Nc1ccc(Cl)c(-c2nc3ncccc3o2)c1	-38.3	i	-6.1	-9.8	-2.1	3.7	-1.7	9.0
CCC(C(=O)OC(C)C(=O)Nc1ccc(Cl)cn1)c1ccccc1 (stereo unspecified)	-17.4	i	-4.5	1.8	-8.1	4.3	2.9	-6.0
Cc1ccc(C(=O)NCC(=O)NCCc2ccc(S(N)(=O)=O)cc2)s1	-12.5	i	4.4	nt	9.1	-7.3	4.5	14.1
CCN(C(=O)CSc1nnc(-c2ccccc2Br)o1)C1CCS(=O)(=O)C1 (stereo unspecified)	-1.8	i	-1.6	nt	-13.0	1.6	1.4	9.1
CCN(CC)c1ccc(/C=N/N2C(=O)c3ccccc3C2=O)cc1	5.3	i	6.9	6.0	-8.4	2.3	0.9	-16.8
CN(C)CCSc1nc(O)c(-c2ccccc2)c(=O)n1-c1ccccc1	-6.1	i	-6.0	nt	11.7	3.1	3.1	4.0
COc1cccc(NC(=O)CN(C)C(=O)COc2ccccc2Cc2ccccc2)c1	23.0	nt	nt	-3.3	nt	-4.0	-7.6	14.4
CC(Oc1ccc(Br)cc1)C(=O)Nc1ccc(S(=O)(=O)NC2=NCCCCC2)cc1 (stereo unspecified)	1.3	nt	nt	-16.8	nt	-2.0	-11.6	nt
COc1ccc(NC(=O)COC(=O)C23CCC(=O)N2c2ccccc2S3)cc1 (stereo unspecified)	-50.5	i	6.4	-15.3	-3.7	5.6	12.4	-7.4
C/C(=N\NC(=O)CSc1nc2ccccc2s1)c1cccnc1	17.8	i	1.6	nt	2.3	1.7	-5.3	-1.7
Cc1cc(C)cc(S(=O)(=O)c2cn(C)c3cc(N4CCN(C)CC4)c(F)cc3c2=O)c1	-1.5	i	-3.8	-3.4	-0.1	-3.6	1.1	1.2
Cc1ccc(S(=O)(=O)N2CCN(C(=O)c3n[nH]c(=O)c4ccccc34)CC2)cc1	1.7	i	-15.7	-7.5	11.7	-0.8	2.4	-7.6
Cc1cc(C)nc(SCC(=O)OCC(=O)Nc2ccccc2)n1	4.1	i	-6.9	-9.4	1.5	-1.6	2.0	-8.7
COCCCN1CC23C=CC(O2)C(C(=O)OC)C3C1=O (stereo unspecified)	nt	i	nt	-11.0	nt	7.3	5.5	nt
O=C(CNc1cccc(F)c1)N1CCc2ccccc2C1	-101.9	i	2.3	-11.0	1.1	0.7	-0.8	-3.3
CN(C(=O)CSc1nnc(-c2ccc(Cl)cc2)n1C)C1CCS(=O)(=O)C1 (stereo unspecified)	-5.5	nt	nt	-19.3	nt	4.3	4.7	-19.2
COc1ccccc1NS(=O)(=O)c1cc(NC(=O)CCNC(C)=O)ccc1N1CCCCC1	-5.1	nt	nt	nt	nt	-0.5	-1.4	-8.6
Cn1c(CNC(=O)CNC(=O)c2cccc(F)c2)cc(=O)n(C)c1=O	-0.9	i	-4.3	-8.8	-8.3	-1.9	3.9	-10.8
CCCNC(=O)COC(=O)c1cc(SC)ccc1Cl	-14.2	i	-3.2	-0.6	9.5	-14.4	1.1	nt
O=C1c2ccccc2-c2nnc(-c3ccccc3)cc21	nt	i	0.8	-40.6	-3.5	3.1	7.1	-9.4
COc1ccc(OC)c(C(=O)c2ccc(C(=O)O)cc2)c1	-41.3	i	3.5	-40.2	8.8	0.2	3.6	-9.6
C#CCOCCOCCOCCNc1nc(N2CCN(C(=O)[C@H](C(C)C)n3cc(CCO)nn3)CC2)nc(N2CCN(C(=O)[C@H]([C@@H](C)CC)n3cc(CCCN=C(N)N)nn3)CC2)n1	-45.7	i	0.1	5.5	-13.4	0.5	4.0	-0.2
CCSc1nnc(NC(=O)CSc2nccn2-c2cccc(C)c2C)s1	nt	i	-1.0	nt	5.1	nt	nt	8.1
Later entries:
SMILES	HIV Env fusion	Rce1 inh	eIF4H inh	Yeast UUG start	PABP polyA inh	MT1-MMP act inh	MT1-MMP act inh RFP	CSC inhib	others
COC(=O)c1sc(NC(=O)C2CCCCC2C(=O)O)c(C(=O)OC)c1C (stereo unspecified)	nt	i	-9.0	17.2	13.0	0.0	-1.0	-8.7
CCSc1nc2c(cnn2-c2ccc(C)cc2)c(=O)[nH]1	-100.5	i	-3.3	-11.5	-0.1	3.6	3.1	10.0
O=C(CCNS(=O)(=O)c1ccc2c(c1)CCC(=O)N2)Nc1ccc2c(c1)OCCO2	-28.0	nt	5.0	-11.2	-5.5	2.7	5.4	6.9
CC(=O)Oc1ccc(C(=O)Cc2ccccn2)c(O)c1	nt	i	-2.7	-6.3	10.3	5.8	3.4	nt
Cc1nc2ccc(Oc3ccccc3)cc2s1	2.8	i	nt	-10.8	nt	2.2	0.0	-3.0
CCS(=O)c1ccccc1C(=O)OCC(=O)N1CCC(c2ccccc2)=N1 (stereo unspecified)	nt	nt	nt	27.5	nt	0.4	0.6	-12.0
CCNC(=O)C1(C)CCN(C(=O)c2c(F)ccc(C)c2F)C1 (stereo unspecified)	-11.0	nt	nt	-8.1	nt	1.3	3.0	nt
CC(O)CNc1nc2c(c(=O)n(Cc3ccc(Cl)c(Cl)c3)c(=O)n2C)n1C (stereo unspecified)	-1.3	i	-4.5	nt	-11.6	0.4	-0.5	-12.2
COC(=O)C1(Cc2cc(-c3cccnc3)no2)CCN(C(=O)OC(C)(C)C)CC1	-8.1	i	0.2	-0.1	-1.0	2.9	-5.7	-2.5
Cc1ccc(-n2nnnc2SCC(N)=O)c(C)c1	-196.4	i	-8.7	-13.0	-1.0	2.1	-0.6	-1.9

Molecules above containing a tert-butyl group, in the order listed:
SMILES	HIV Env fusion	Rce1 inh	eIF4H inh	Yeast UUG start	PABP polyA inh	MT1-MMP act inh	MT1-MMP act inh RFP	CSC inhib	others
CC(C)(C)OC(=O)CC[C@@H](C(=O)N1CCN(C(=O)OC(C)(C)C)CC1)n1cc(C(Cc2ccc(O)cc2)NC(=O)OC(C)(C)C)nn1 (stereo partly specified)	61.7*	i	-8.4	3.4	-5.9	1.1	-3.4	-5.1
COC(=O)C1(Cc2cc(-c3cccnc3)no2)CCN(C(=O)OC(C)(C)C)CC1	-8.1	i	0.2	-0.1	-1.0	2.9	-5.7	-2.5

Screening results from PubChem BioAssay.
